From PubChem BioAssay
PrP UTR inh: inhibition of PrP 5' UTR reporter expression; inhibition, % (concentration not given with the values); 340,000 compounds, 0.35% hits; AID 488862; cell-based PrP 5' UTR mRNA reporter, plate reader;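 active = every replicate at 50% or more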;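 note: 0 = median of the neutral control wells; tested in H4 reporter cells; numbers are from one replicate; inactives centre near -14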
Mtb hypoxia inh: Mtb hypoxia fluorescent reporter inhibition | M. tuberculosis hypoxia-regulated fluorescent reporter, fluorescence | fluorescence inhibition, % (no concentration beside the values) | 300,000 compounds, 0.1% hits;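 active = 35 to 45% if threefold the growth effect, above 45% if 1.5-fold the growth effect; inactive = the rest, general growth blockers included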;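 note: wells of about 50 µL received 100 nL stock; 0% = vehicle wells and 100% = reference inhibitor wells; whole bacteria with a GFP reporter of the hypoxia response; strong numbers were not always called active; many hits fall short of the cut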
Autofluor counter: counter-screen for toxin protease inhibitors: compound fluorescence | compound autofluorescence counterscreen, microsphere flow cytometry; hits give high values | fluorescence intensity (no concentration beside the values) | 360,000 compounds, 3.1% hits;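 active = at least 3 SD above the mean of all compounds, about 16000 in these data; inconclusive = too few beads counted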;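 note: 100 nL of 1 mM stock went into each well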
RN4220 kill: kills Staphylococcus aureus RN4220; S. aureus RN4220 growth, OD600, 16 h; inhibition, % (test concentration not listed); 330,000 compounds, 0.33% hits;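 active = z-score of -3 or lower and OD600 up to 0.18 on both plates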;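 note: plate controls were untreated cells for no effect and reference antibiotic for full effect; stock transfer was 100 nL into about 80 µL; one replicate is shown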
ugtP null kill: growth inhibition of S. aureus ugtP deletion strain; 330,000 compounds, 0.54% hits; growth inhibition, % (no concentration beside the values); S. aureus RN4220 ugtP deletion, OD600 growth, 16 h; some inactives read as strong as hits;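 active = z-score under -3 and OD600 up to 0.15 on both plates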;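 note: plate controls were untreated wells for no effect and antibiotic for full effect; wells of about 80 µL received 100 nL stock; the first replicate is given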
BJeLR lethal: BJeLR cell viability loss; BJeLR (HRASV12) viability, CellTiter-Glo ATP luminescence, 48 h; reference of the scale not given here; inhibition, % (concentration not given with the values); 300,000 compounds, 0.17% hits; AID 1554;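 active = replicate mean above 50%; inconclusive = above 50% but judged a plate artefact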;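 note: 50 nL library stock added to about 25 µL; numbers are from one replicate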
Mtb hypoxia inh growth: also measured in Mtb hypoxia inh; calls as there; growth inhibition, %; measured here: M. tuberculosis growth (absorbance);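 0% = vehicle and 100% = reference antibiotic; read after six days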
Active calls of the source: *; ? = inconclusive; . = not tested or not shown.

SMILES	PrP UTR inh	Mtb hypoxia inh	Mtb hypoxia inh growth	Autofluor counter	RN4220 kill	ugtP null kill	BJeLR lethal
COc1cc(CN(C)Cc2ccccc2)cc(OC)c1O	-7	9	8	3810	1.9	6	1
O=C(NCc1cccnc1)c1ccc(CS(=O)(=O)c2ccc(Cl)cc2)o1	-7	7	7	.	3.7	-2	-10
CC(=O)Oc1ccc(C(=O)NC(C)CCc2ccccc2)cc1 (stereo unspecified)	-26	13	6	3287	1.0	6	-22
Cc1ccc(C(=O)CSc2nnc(CNc3ccc(F)cc3)o2)cc1	-13	5	-2	4027	3.9	14	9
CN1c2ccsc2C(=NNc2ccccc2)CS1(=O)=O	.	13	9	.	83	96*	.
CCOc1cc(Br)ccc1S(=O)(=O)N1CC(C)OC(C)C1 (stereo unspecified)	-19	-1	7	20570*	1.6	-15	0
CC(C#N)Sc1nnc(Nc2ccccc2)s1 (stereo unspecified)	-15	17	12	4436	21	9	-2
CCOC(=O)C1CCCN(c2cc(=O)n(Cc3ccc(F)cc3)c(=O)[nH]2)C1 (stereo unspecified)	-31	8	2	8048	1.3	4	-1
CNc1nc(N)c([N+](=O)[O-])c(Nc2cccc(Cl)c2)n1	.	2	-2	3549	5.3	6	-8
CC(C)(C)c1cc(C(=O)NCc2ccccc2)ccn1	-12	8	15	4147	0.5	-5	6
CC(=O)c1cccc(NC(=O)CN(C)S(=O)(=O)c2ccc3c(c2)CCC(=O)N3)c1	-19	4	4	6064	2.8	-2	-2
COC(=O)c1cc2c(=O)c3ccccc3oc2nc1/C=C/N(C)C	-61	-2	3	5144	5.0	-3	4
CC1CC(C)CN(CCCNC(=O)c2nn(C)c3c2CS(=O)(=O)c2ccccc2-3)C1 (stereo unspecified)	-1	4	4	5618	-1.6	5	4
COc1ccc(N2CCN(CCNC(=O)CCNS(=O)(=O)c3cccs3)CC2)cc1	-12	8	5	9961	2.2	2	-8
CCN(CC)CCCN1C(=O)C(O)=C(C(C)=O)C1c1cccc(OC)c1 (stereo unspecified)	.	11	6	.	2.7	7	-8
CC(=O)N1CCN(C(=O)c2cccc(S(=O)(=O)Nc3ccc(C)cc3)c2)CC1	-28	2	7	2981	0.5	1	-12
CCOC(=O)N=S(=O)(Oc1ccc([N+](=O)[O-])cc1)c1ccc(Cl)cc1 (stereo unspecified)	2	10	3	2331	0.8	4	15
COC(=O)[C@@H]1C[C@@]2(O)[C@H](O)[C@H](O)[C@H](O)C[C@H]2N1Cc1ccccc1OS(=O)(=O)c1ccc(C)cc1	-11	.	.	2840	.	.	7
Cc1ccc(-c2noc(CCC(=O)NCCCN3CCN(c4cccc(Cl)c4)CC3)n2)cc1	-44	.	.	2645	-3.9	74	0
CCOC(=O)C(=CNc1cc(C)nn1-c1ccc(C)cc1)C(=O)OCC	-1	.	.	2330	-0.4	0	3
O=C(O)c1occc1CSc1ccccc1	-33	16	-5	3762	0.4	1	4
CC(=NOCC(=O)NN=Cc1ccccc1O)c1cccs1	.	3	-2	.	8.5	18	.
CC(C)CC(=O)NN(C)c1nc(-c2ccccc2)nnc1C(F)(F)F	-12	.	.	3001	4.1	7	4
O=C(COC(=O)c1cccnc1Cl)Nc1cc(S(=O)(=O)N2CCCCCC2)ccc1Cl	-24	4	13	5023	18	5	.
C/C(=N\OC(=O)c1ccc(C)cc1)c1sc(C)nc1C	-3	.	.	1963	.	.	2
Cc1cc(C(F)F)n2nc(C(=O)Nc3cc(C)on3)nc2n1	-4	.	.	2131	3.6	1	10
Cc1cc(C=c2sc3nc4ccccc4n3c2=O)c(C)n1-c1ccc(C(=O)O)cc1	.	18	23	.	88	100*	.
OCc1nc2ccc(Cl)cc2[nH]1	6	2	18	4551	1.5	-3	-1
CCCn1c2ccccc2c2cnn(CC(=O)OC)c(=O)c21	-23	14	9	3948	3.6	17	-12
C=CCn1c(SCc2c(C)noc2C)nc2ccccc2c1=O	67*	9	0	10540	9.5	11	30
CC(OC(=O)C1CSC2(C)CCC(=O)N12)C(=O)Nc1cccc(C#N)c1 (stereo unspecified)	-2	0	-2	.	3.7	3	-6
Cc1cccc(C(=O)Nc2cccc(S(=O)(=O)NCc3ccco3)c2)c1	-13	4	10	3714	1.9	8	.
CCc1ccc(-c2nc(CN3CCCC(C(=O)O)C3)c(C)o2)cc1 (stereo unspecified)	12	-5	3	4348	1.1	-17	3
Cc1cc(Nc2ccc(Cl)cc2)n(-c2cccc(Cl)c2)n1	-4	-94	-25	3972	-14	-34	1
O=C(NCC(=O)N1CCC2(CC1)NCCc1[nH]cnc12)c1ccc(F)cc1	-11	5	0	5417	3.4	3	-3
CS(=O)(=O)c1nc(S(=O)(=O)c2ccc(Cl)cc2)c(NCCCN2CCCC2=O)s1	-13	-8	-1	2855	2.8	7	-3
O=C(O)c1ccc(C=NNC(=O)c2cc(-c3ccc4c5c(cccc35)CC4)n[nH]2)cc1	.	14	4	.	18	-13	.
Cc1cc(NC(=O)CSc2nnc(CNC(=O)c3cccc(C(F)(F)F)c3)o2)no1	-22	0	0	5828	-2.4	-4	3
COc1ccc(C(=O)/C=C/c2cn(CC(O)CN3CCOCC3)c3ccccc23)cc1 (stereo unspecified)	-25	11	4	2371	13	1	.
COc1cccc(CN(C)C(=O)c2cccc(OC3CCN(C4CCCC4)CC3)c2)c1	-20	-8	1	3381	1.0	-4	-4
CCN1C(=O)[C@H]2[C@@H](c3ccc(OC)cc3)N3C(=O)CN(Cc4ccccc4)C(=O)[C@@]3(Cc3ccccc3)[C@H]2C1=O	-7	.	.	3007	.	.	2
COc1ccc(OCC(=O)N/N=C(\C)c2ccc(OC)cc2)cc1	-14	.	.	3198	.	.	27
CN1C(c2ccccc2)CC(=NO)CC1c1ccccc1 (stereo unspecified)	-20	6	1	3113	2.6	4	8
CC1(C)Oc2cc3oc(=O)ccc3cc2C[C@@H]1O	-4	5	9	3613	-14	-6	.
Cn1cccc1C(=O)NCC(c1ccco1)N1CCCCC1 (stereo unspecified)	-11	-6	-3	.	0.1	-1	0
CC(C)NC(=O)CC1OC(=O)c2ccccc21 (stereo unspecified)	-22	7	8	23103*	3.2	2	-4
Cc1ccc2cc(C#N)c(N3CCCN(C(=S)NCCCN(C)C)CC3)nc2c1	-7	.	.	4321	.	.	4
O=C(CN1C(=O)NC(c2ccccc2)(c2ccccc2)C1=O)N1CCCCC1	-8	5	9	?	5.4	11	.
CCOC(=O)Cc1csc(NC(=O)c2sc3nc4ccc(C)cc4cc3c2N)n1	-7	7	-1	7369	11	4	0
CCCNC(=O)C=Cc1ccc(S(=O)(=O)Nc2ccccc2OC)cc1	.	0	10	.	3.9	-1	.
C=CCNc1oc(/C=C/c2ccccc2)nc1C#N	-60	7	14	10349	0.4	-1	5
O=C(Cn1nc(-c2cccc(Cl)c2)ccc1=O)Nc1ccccc1Br	-8	-3	2	4870	1.7	4	-4
CC(=O)NC12CC3CC(C1)CC(C(=O)N1CCN(S(=O)(=O)c4ccc(C(C)C)cc4)CC1)(C3)C2	3	6	2	5250	5.3	2	-4
COC(=O)CSc1nc2nc(C)cc(C)n2n1	3	.	.	6425	1.1	-3	-1
Cc1ccc(C(=O)NCC(=O)NN=Cc2sccc2C)cc1[N+](=O)[O-]	.	11	2	.	-0.7	5	.
c1ccc2c(c1)nnn2-c1ncnc2sc3c(c12)CCCC3	-6	-7	6	23314*	-4.0	-46	16
CC(C)(C)c1ccc(OCCCNCc2ccccc2)cc1	-7	15	12	2159	-3.5	-6	-2
COc1ccc(Cn2c(=O)[nH]c3cc(C(=O)N4CCN(c5ccccc5)CC4)ccc3c2=O)cc1	-22	4	-1	3467	1.4	-3	1
C=CCOC(=O)/C(=C\c1ccccc1)NC(=O)c1ccc(C)cc1	-74	-7	10	2345	2.2	6	-15
COc1ccc(CNC(=O)c2ccc(C)o2)cc1	-19	.	.	3849	1.9	0	10

Compound profiles, as listed above. Order of screens: PrP UTR inh	Mtb hypoxia inh	Mtb hypoxia inh growth	Autofluor counter	RN4220 kill	ugtP null kill	BJeLR lethal
Profile of CCOC(=O)C1CCCN(c2cc(=O)n(Cc3ccc(F)cc3)c(=O)[nH]2)C1 (stereo unspecified) : -31	8	2	8048	1.3	4	-1
Profile of CC(C)CC(=O)NN(C)c1nc(-c2ccccc2)nnc1C(F)(F)F : -12	.	.	3001	4.1	7	4
Profile of O=C(NCc1cccnc1)c1ccc(CS(=O)(=O)c2ccc(Cl)cc2)o1 : -7	7	7	.	3.7	-2	-10
Profile of C/C(=N\OC(=O)c1ccc(C)cc1)c1sc(C)nc1C : -3	.	.	1963	.	.	2
Profile of O=C(Cn1nc(-c2cccc(Cl)c2)ccc1=O)Nc1ccccc1Br : -8	-3	2	4870	1.7	4	-4

(more compounds)
SMILES	PrP UTR inh	Mtb hypoxia inh	Mtb hypoxia inh growth	Autofluor counter	RN4220 kill	ugtP null kill	BJeLR lethal
CC(C)(C)NC(=O)NC(=O)CSc1ncn[nH]1	-6	10	3	3291	3.3	-2	-4
O=C(NN=Cc1ccc([N+](=O)[O-])cc1)c1cccc(N2CCCC2=O)c1	.	7	1	.	-0.5	-3	.
Cc1cc(C(C)c2ccccc2)c(O)c(CN2CCOCC2)c1C (stereo unspecified)	-11	12	8	3858	2.4	43	-4
Cc1cc(C)nc(SCC(=O)n2c3c(c4ccccc42)CCCC3)n1	-4	2	5	2481	6.5	4	4
CC(C)(C)NC(=O)COC(=O)c1cc(S(=O)(=O)N2CCCCC2)ccc1N1CCOCC1	-12	.	.	.	0.5	2	2
O=P(N[C@@H](c1ccccc1)[C@@H]1C[C@H]1CO)(c1ccccc1)c1ccccc1	-18	.	.	2736	.	.	1
CC1CCCN(C(=O)CCNC(=O)Cn2cnc3ccccc3c2=O)C1 (stereo unspecified)	-25	1	-5	3121	2.7	9	-13
CN(C(=S)Nc1ccc(F)cc1)C1(c2ccccc2Cl)CCCCC1=O (stereo unspecified)	1	6	2	24303*	4.4	2	3
O=C(Nc1cccc2ccccc12)N1CCc2ccccc2C1	-5	.	.	3464	5.4	-2	-7
CC1CC(C)CN(C(=O)c2cccc3c2-c2ccccc2C3=O)C1 (stereo unspecified)	-18	0	4	3576	4.4	2	4
Cc1cc(NC(=O)CSCc2nc(-c3cccc(Cl)c3)oc2C)no1	-16	5	-2	4332	8.2	11	3
C=CCn1c(=NC(=O)c2cccc(N3C(=O)CCC3=O)c2)sc2cccc(OC)c21	-28	9	2	4527	20	5	-18
CCC(C)NC(=O)Cn1c(=O)n(CCCCC(=O)NCc2ccco2)c(=O)c2ccccc21 (stereo unspecified)	-30	.	.	2679	0.9	5	7
CN(C)C(CNC(=O)c1cccnc1Sc1ccccc1)c1ccco1 (stereo unspecified)	-35	7	6	5916	3.0	5	7
CCN(CC)S(=O)(=O)c1ccc(C)c(NC(=S)N2CCN(C/C=C/c3ccccc3)CC2)c1	-21	8	-7	4434	-0.5	0	10
O=[N+]([O-])c1cc2c(cc1C=NNc1nc(N3CCCC3)nc(N3CCCC3)n1)OCO2	.	-1	4	.	0.3	-2	.
O=C(NC(=S)Nc1ccc(S(=O)(=O)N2CCCC2)cc1)C1CC1	-18	12	15	3566	-2.3	4	4
CCn1c(SC(C)C(=O)NCC2CCCO2)nc2scc(-c3ccccc3)c2c1=O (stereo unspecified)	-2	-4	1	6047	0.2	5	0
Cc1ccc(C(C(=O)NCc2ccccc2)N(C(=O)c2csnn2)C2CC2)cc1 (stereo unspecified)	-8	5	-1	3415	1.5	6	-6
COc1ccc(CCN2CC(C(=O)NC3CCCCC3)CC2=O)cc1OC (stereo unspecified)	-1	7	-1	4228	11	5	-22
Cc1cccc(C(=O)Oc2ccc(C=NNC(=O)c3ccncc3)cc2)c1	.	.	.	.	7.9	4	.
CCOc1ccc(C2(C)NC(=O)N(CCN(C)C)C2=O)cc1 (stereo unspecified)	-24	15	4	3776	2.1	5	-4
CCN(CC)c1ccc(/C=C2/C(=O)ON=C2C)cc1	-24	16	4	3679	4.6	3	3
C[C@]12CCC3C(CC[C@H]4[C@H](O)[C@H](O)CC[C@]34C)C1CCC2=O (stereo partly specified)	-23	6	9	3479	6.1	7	.
COc1ccc(Cl)cc1NC(=O)c1cc(-c2ccco2)on1	-13	3	1	5711	5.9	-1	-7
